Six1-Eya2 blk: blocks human Six1 binding to Eya2. Q15475+O00167. AlphaScreen GST-Six1/His-Eya2 binding, biochemical; active compounds read low; control for the full effect not named in the record. activity change, % (no concentration beside the values). actives 0.56% (n = 360,000); in the data active = activity change below about -65%; inconclusive = about -30% to -65%; inactive = above about -30%; further: on the % scale 0 is the no-effect control and ±100 the full control effect
Target sequence (O00167 whole entry, looked up): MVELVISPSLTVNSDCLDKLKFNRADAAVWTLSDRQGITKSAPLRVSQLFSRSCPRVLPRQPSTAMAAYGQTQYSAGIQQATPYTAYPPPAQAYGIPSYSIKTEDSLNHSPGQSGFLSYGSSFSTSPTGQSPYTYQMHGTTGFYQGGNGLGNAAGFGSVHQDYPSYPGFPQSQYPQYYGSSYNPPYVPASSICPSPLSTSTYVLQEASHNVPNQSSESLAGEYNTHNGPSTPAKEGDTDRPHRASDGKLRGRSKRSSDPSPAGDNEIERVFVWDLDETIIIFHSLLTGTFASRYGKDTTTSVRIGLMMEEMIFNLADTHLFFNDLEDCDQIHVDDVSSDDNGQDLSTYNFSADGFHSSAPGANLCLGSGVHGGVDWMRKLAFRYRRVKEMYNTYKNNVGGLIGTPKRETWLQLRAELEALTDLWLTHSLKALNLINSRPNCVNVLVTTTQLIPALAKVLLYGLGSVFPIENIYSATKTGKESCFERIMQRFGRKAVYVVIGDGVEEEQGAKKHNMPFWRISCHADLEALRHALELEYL
Target sequence (Q15475 whole entry, looked up): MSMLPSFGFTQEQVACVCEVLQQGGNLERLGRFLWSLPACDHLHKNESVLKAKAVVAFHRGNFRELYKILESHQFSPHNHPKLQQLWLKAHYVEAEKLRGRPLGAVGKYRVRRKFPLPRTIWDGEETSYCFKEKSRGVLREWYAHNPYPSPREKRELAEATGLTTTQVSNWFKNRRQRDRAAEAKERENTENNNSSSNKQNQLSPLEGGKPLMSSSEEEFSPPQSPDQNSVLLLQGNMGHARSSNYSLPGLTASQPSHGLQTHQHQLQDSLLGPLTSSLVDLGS
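AlphaScreen with GST-Six1 and His-Eya2 (5X mix: 250 nM and 500 nM), glutathione donor and nickel acceptor beads; buffer 50 mM Tris pH 8.0, 300 mM NaCl, 1 mM TCEP; 1 h at 37 C in the dark.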
gsp antagonist: gsp mutant antagonism; Potency, µM (doses to about 76.9 µM), for inactives: at the top dose activity change, negative = inhibition, usual class: inhibitors; gsp-mutant cells, cAMP HTRF, 30 min; control for the full effect not named in the record; actives 0.4% (n = 340,000); AID 624288; active = falling curve of any shape with a large fitted effect; inconclusive = falling curve, mostly with a smaller effect; inactive = flat or rising curve; cell line not stated here;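 further: intracellular cAMP measured with PDE inhibitor Ro 20-1724 present during compound exposure; potency means the concentration at half of the fitted maximal effect; on the % scale 0 is the no-effect control and ±100 the full control effect; nearly all actives have a fitted effect of over 65% in size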
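Measurement of cellular cAMP by homogeneous time-resolved fluorescence following a 30 min compound exposure at 37C. The PDE inhibitor […] was present throughout; the assay buffer was DPBS with 0.05% BSA and 0.005% Tween 20.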
D2 agonist: human D2 receptor agonism in beta-arrestin assay; DiscoveRx PathHunter D2 beta-arrestin, luminescence, 90 min; 100% = 57 uM dopamine signal; activation, % (concentration not given with the values); actives 0.084% (n = 360,000); AID 624465; in the data active = activation above about 40%; inconclusive = about 15% to 40%; inactive = below about 15%; further: compound concentration not given in the record; the text of the record calls up to 30% inactive
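DiscoveRx PathHunter D2 beta-arrestin cells (2,100/well) attached overnight, then compound-stimulated 90 min at 37 C in HBSS/10 mM HEPES/0.1% Tween-20 buffer; beta-galactosidase complementation read by luminescence after 1 h at ambient temperature. Dopamine 57 uM final (EC100) as control.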
CtBP-E1A inh: inhibitors of CtBP/E1A interaction | AlphaScreen GST-E1A/His-CtBP binding, 1536-well; active compounds read low; control for the full effect not named in the record | activity change, % (test concentration not listed) | actives 0.49% (n = 340,000); in the data active means activity change below about -65%; inconclusive means about -30% to -65%; inactive means above about -30%; further: on the % scale 0 is the no-effect control and ±100 the full control effect
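GST-E1A and His-tagged CtBP (125 nM each as 5X stock) were preincubated with pin-transferred compound for 2 h at 37 °C in the dark, then glutathione donor and nickel acceptor beads were added for 1 h before AlphaScreen reading.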
gsp ag: activates gsp, the McCune-Albright syndrome mutation. gsp mutant cells, cAMP HTRF, 30 min; control for the full effect not named in the record. Potency, µM (highest dose often 76.9 µM), without a hit: at the top dose activation (cAMP increase), actives largely listed as activators. actives 0.13% (n = 340,000). AID 624287; active = well fitted activation curve with a large enough effect; inconclusive = small, poorly fitted or top-dose-only effect, or another doubt; inactive = no such curve, though single readings can be large or run the other way; cell line not stated here;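 further: phosphodiesterase inhibitor Ro 20-1724 added with compounds to block cAMP breakdown; potency means the concentration at half of the fitted maximal effect; nearly all actives have a fitted effect of over 60% in size; about a fifth of the inactives were tested at one dose only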
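Cells stably selected in G418 were plated at 2000/well, grown 16-24 hr, then given compounds in DMSO with the PDE inhibitor […] (300 uM solution added) for 30 min at 37C; cAMP was read by HTRF.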
D2 PAM: human D2 receptor positive allosteric modulation. actives 0.23% (n = 360,000). P14416. DiscoveRx D2 beta-arrestin cells, luminescence, 90 min; 100% = 57 uM dopamine signal. potentiation, % (no concentration beside the values); active = potentiation of 50% or more; inconclusive = 30% to 50%; inactive = 30% or less;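 further: compound concentration not given in the record; tested on top of an EC20 dose of dopamine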
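PathHunter beta-arrestin assay in DiscoveRx D2 cells. Compounds were added with an EC20 of dopamine (50 nM final) for 90 min at 37 deg C. Luminescence was read 1 h after detection reagent, with 57 uM dopamine as the EC100 control.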
An asterisk follows results filed as active; ? = inconclusive; / = not tested or not shown; [ ] = another dose, or the depositor's remark.

SMILES	Six1-Eya2 blk	gsp antagonist	D2 agonist	CtBP-E1A inh	gsp ag	D2 PAM
COc1ccc(NC(=O)C2(c3ccc(NC(=O)c4ccc(OC)cc4)cc3)CCCC2)cc1	2.7	21.9%	-3.3	6.5	-15.9%	10.8
CCN(CC)CCN(CC(=O)Nc1c(C)cc(C)cc1C)C(=O)c1ccccc1	10.1	2.6%	-3.1	-3.9	-12.5%	-1.8
Cc1cc(NC(=O)C(C)SCC(=O)Nc2ccccc2N2CCCC2)no1 (stereo not drawn)	0.9	-1.8%	-3.5	-0.3	-48.6%[inhibitor]	-4.7
COc1cccc(NC(=O)CN(C)C(=O)c2cccc(NS(=O)(=O)c3ccc(Br)cc3)c2)c1	-1.6	-17.5%	-0.9	-3.2	21.1%	-3.4
CCOc1ccc(OCCC(=O)NNC(=O)c2cc(OC)c(OC)c(OC)c2)cc1	-8.7	1.2%	0.2	2.8	1.0%[15.4 µM]	3.7
CC(C)c1ccc(C(=O)N2CCOCC2c2cc(C(=O)Nc3ccccc3)no2)cc1 (stereo not drawn)	0.7	/	-2.6	2.9	/	-7.1
CCOC(=O)c1ccc(NC(=O)c2c(NCc3ccccc3)[nH]c(=O)[nH]c2=O)cc1	2.0	4.8%	1.3	3.2	/	-21.0
CN(C(=O)c1cccc(NC(=O)Cc2ccc(NC(=O)C3CCCN(C(=O)C4CCCC4)C3)cc2)c1)C1CC1 (stereo not drawn)	0.1	2.0%	0.6	4.8	/	/
COc1cc(NC(=S)Nc2cccnc2)cc(OC)c1	-12.8	-3.4%	2.1	0.3	0.0%	-2.5
Cc1cccc(N2CCN(Cc3nc(-c4ccc(F)cc4F)oc3C)CC2)n1	-11.4	-16.1%	0.7	-12.8	-0.6%	-6.2
Cc1nn(C)c(C)c1CN(C)C(=O)C1c2ccccc2Oc2ccccc21	-1.8	-35.0%	-4.1	6.2	25.5%	-8.5
COc1ccc(/C=C/C(=O)NC(=S)NCCc2ccc(OC)c(OC)c2)cc1	-0.7	4.9%	6.5	0.7	-24.8%	12.7
COC(=O)c1ccc(-n2c(C)ccc2-c2ccccc2)cc1	-7.9	-6.0%	-1.4	-8.6	-0.2%	-17.0
Cc1cccc(-c2nc(CSCC(=O)N3CCN(c4ccccn4)CC3)c(C)o2)c1	-10.4	31.6µM*	2.4	-3.8	-14.4%	-4.8
O=C(Nc1nnc(-c2ccc(Cl)cc2)o1)c1ccc(N2C(=O)CCC2=O)cc1	-15.8	-5.1%	0.5	-2.5	-15.3%	-2.4
N#Cc1c(NC(=O)CN2CCCCC2)sc2c1CCC2	-5.9	10.5%	1.9	-3.0	-26.3%	-8.0
COc1ccccc1-n1c(Cc2cccs2)n[nH]c1=S	-1.2	14.9%	-1.5	4.0	21.9%	-3.7
CCOc1cc(/C=N/Nc2cc(C)nc(-n3nc(C)cc3C)n2)ccc1O	-19.5	0.2%	-28.6	?	31.0%	-45.1
Cc1cccc(C)c1NC(=O)c1cc2c(=O)c3ccccc3oc2nc1C(F)(F)F	-0.2	9.8%	-5.3	1.7	2.2%	-5.5
CN(C)Cc1nc2c(c(=O)[nH]1)C1(CCCCC1)Cc1ccccc1-2	1.3	5.7%	-3.1	9.5	17.6%	-16.0
O=S(=O)(NCC1CC1)c1ccc(F)c(Cl)c1	9.6	3.3%	0.4	0.9	10.5%	-1.4
CC1(C)CC(=O)c2cc(C(=O)Nn3cnnc3)c(=O)n(-c3ccccc3)c2C1	-11.7	2.6%	-0.9	-10.5	3.5%	-0.8
Cc1ccc(CO/N=C/C2=C(Cl)c3ccccc3CC2)cc1	41.8	0.5%	-1.9	46.7	-3.6%	-2.7
COc1ccc2c3c(ccc2c1)C(=O)/C(=C/O)CC3	-5.3	-22.4%	?	-0.3	-2.9%	52.3*
CCOC(=O)c1c(NC(=O)C2CCCN(S(=O)(=O)c3ccccc3)C2)sc2c1CCCC2 (stereo not drawn)	2.4	-23.0%	-2.4	5.4	-12.1%	-3.5
CN(C)C(=O)CCCc1nc(-c2ccc(Cl)cc2)no1	9.3	0.6%	1.8	5.9	-0.7%	-5.9
Cc1cccc(C)c1NC(=O)COC(=O)c1ccc(N2CCCC2)c([N+](=O)[O-])c1	1.4	23.4%	-1.5	4.3	22.2%	-0.5
CCc1cc(=O)oc2cc(C)cc(OCC(=O)NCCc3c[nH]c4ccccc34)c12	-5.8	-30.0%	5.4	-7.7	/	7.6
CSc1nc(C)nc(C2CC2)c1C#N	6.3	-7.1%	-2.3	4.3	4.4%[15.4 µM]	-7.3
C=CCn1c(CNC(=O)c2ccco2)nnc1SCC(=O)c1ccc(OC)cc1	1.8	6.6%	-1.5	9.9	?	-3.0
Cc1ccc(C)c(N2CCN(C(=O)Cn3c(=O)oc4cc(S(=O)(=O)N5CCCC5)ccc43)CC2)c1	1.2	-6.1%	-0.4	6.2	-0.5%	-5.5
CCOC(=O)c1ccc(NC(=O)c2ccccc2N(C)S(=O)(=O)c2ccccc2)cc1	-8.9	-8.5%	0.7	2.6	7.3%	-14.8
O=C1OCCN1N=Cc1ccco1	-4.0	-3.8%	-0.7	0.0	-1.2%	-5.0
COC(=O)c1sc(NC(=O)C2c3ccccc3Oc3ccccc32)c(C(=O)OC)c1C	0.9	0.9%	0.9	9.8	?	-6.6
O=C(c1ccccc1C(=O)N1CCN(c2ccccc2F)CC1)N1CCN(c2ccccc2F)CC1	-4.5	-7.2%	-1.7	-2.0	?	5.5
COc1ccc(C(N)c2csc(NC(=O)Nc3ccccc3C(C)(C)C)n2)cc1 (stereo not drawn)	-15.3	/	-7.0	-15.1	/	-5.4
CCCOc1ccc(/C=C/C(=O)O)cc1OC	17.6	-8.9%	0.2	5.7	-67.3%[inhibitor]	11.5
COc1ccc(OCC(=O)NS(=O)(=O)c2ccccc2)cc1	9.0	4.7%	0.4	0.2	-17.2%	-4.7
CCOc1ccc(C(=O)CN2CCN(S(=O)(=O)c3ccc(Cl)cc3)CC2)cc1	-2.2	1.7%	-4.4	-5.6	-3.1%	-34.3
CC(=O)c1cc2c(cc1N(C(=O)Cn1nnc3ccccc31)C(C(=O)NCCC(C)C)c1cccnc1)OCO2 (stereo not drawn)	2.5	0.1%	-2.4	0.2	16.0%	-3.2

The final 3 compounds of the part above come first, to join the parts:
SMILES	Six1-Eya2 blk	gsp antagonist	D2 agonist	CtBP-E1A inh	gsp ag	D2 PAM
COc1ccc(OCC(=O)NS(=O)(=O)c2ccccc2)cc1	9.0	4.7%	0.4	0.2	-17.2%	-4.7
CCOc1ccc(C(=O)CN2CCN(S(=O)(=O)c3ccc(Cl)cc3)CC2)cc1	-2.2	1.7%	-4.4	-5.6	-3.1%	-34.3
CC(=O)c1cc2c(cc1N(C(=O)Cn1nnc3ccccc31)C(C(=O)NCCC(C)C)c1cccnc1)OCO2 (stereo not drawn)	2.5	0.1%	-2.4	0.2	16.0%	-3.2
O=C1c2ccccc2-c2onc3ccc(Oc4ccccc4)c1c23	?	-2.5%	?	13.1	15.5%	11.1
O=C(NCc1ccc(F)cc1)c1ccc(N2CCOCC2)c([N+](=O)[O-])c1	-1.7	2.1%	-2.4	0.0	10.9%	-12.8
O=C(Cn1c(S(=O)(=O)Cc2ccccc2)nc2ccccc21)N1CCCCC1	?	-4.6%	-2.0	-22.7	-7.7%	0.0
CCc1c(C)[nH]c(=S)c(C#N)c1C	0.0	2.5%	-1.8	0.0	22.8%	-20.5
COc1ccc(NC(=O)CN(c2ccc(OC)cc2)S(=O)(=O)c2ccc(OC)c(OC)c2)cc1	1.8	-6.1%	-1.4	-3.4	-31.6%	-2.0
O=C(COC(=O)C1CCC1)NCc1ccc(Cl)cc1Cl	3.8	2.4%	0.6	5.6	12.2%[15.4 µM]	-0.6
O=C(COC(=O)c1cccc(Br)c1)Nc1cccc(S(=O)(=O)N2CCCCC2)c1	-0.5	/	-3.0	2.0	-13.3%	-5.7
Cc1ccc(SCC(=O)NCc2ccccc2C)cc1	10.2	1.4%	-1.3	/	-22.8%	-4.0
NC(=O)c1ccc(NCCc2ccco2)cc1	7.9	/	-2.1	-12.5	/	-0.2
OCCN1CCN(CCOc2cccc(Cl)c2)CC1	-0.7	-5.8%	3.1	-2.7	-15.1%	-28.6
COc1ccc(Oc2nc(SC)nc3ccsc23)cc1	12.6	?	-4.0	14.4	2.0%	-2.0
Cn1[nH]c(=O)c(Cl)c(Cl)c1=O	1.9	8.0%	-2.5	0.7	0.3%	-20.7
O=C(O)CN(Cc1ccccc1)S(=O)(=O)c1ccc2c(c1)OCCO2	7.6	-1.5%	-1.5	4.8	-3.8%[15.4 µM]	-5.9
COC(=O)c1ccccc1NC(=O)C1CC(c2ccc(F)cc2)=NO1 (stereo not drawn)	4.3	4.9%	2.1	3.2	7.3%	-3.7
CC1CCCCN1C(=O)COC(=O)c1cc(Cl)c2c(c1)OCO2 (stereo not drawn)	0.6	-5.0%	0.4	0.8	-4.2%	7.7
CON=C1CCN(c2ncc(C(F)(F)F)cc2Cl)CC1	-1.2	-6.2%	-2.2	5.6	-2.0%	8.6
COc1cccc(NC(=O)CN(C)C(=O)CNC(=O)c2ccc3ccccc3c2)c1	0.7	4.3%	1.5	-0.7	-7.6%	5.9
COc1ccc(C(=O)N/N=C(\Cc2ncc[nH]2)c2ccccc2)cc1	?	13.9%	-3.4	1.4	2.7%[15.4 µM]	-20.1
O=C1CCC(C(=O)N2CCCCCCC2)CN1Cc1cccc(C(F)(F)F)c1 (stereo not drawn)	1.0	17.2%	-2.2	7.2	20.2%[15.4 µM]	-9.2
COc1ccc(N(CC(=O)NCCSCc2c(F)cccc2Cl)S(C)(=O)=O)cc1OC	-1.3	-11.2%	-1.5	3.5	5.0%	-8.9

Single entries from the entries so far:
Cn1[nH]c(=O)c(Cl)c(Cl)c1=O – gsp ag = 0.3%
COc1ccc(C(=O)N/N=C(\Cc2ncc[nH]2)c2ccccc2)cc1 – D2 PAM = -20.1
CON=C1CCN(c2ncc(C(F)(F)F)cc2Cl)CC1 – D2 agonist = -2.2
COc1ccc(N(CC(=O)NCCSCc2c(F)cccc2Cl)S(C)(=O)=O)cc1OC – D2 PAM = -8.9
COc1ccc(Oc2nc(SC)nc3ccsc23)cc1 – Six1-Eya2 blk = 12.6
CC1CCCCN1C(=O)COC(=O)c1cc(Cl)c2c(c1)OCO2 (stereo not drawn) – CtBP-E1A inh = 0.8
O=C1CCC(C(=O)N2CCCCCCC2)CN1Cc1cccc(C(F)(F)F)c1 (stereo not drawn) – CtBP-E1A inh = 7.2

Compound activity: PubChem BioAssay, National Center for Advancing Translational Sciences (NCATS)
